# MARV entry inh: qHTS for inhibitors of binding or entry into cells for Marburg Virus | Marburg virus pseudotyped entry inhibition, cell reporter; control for the full effect not named in the record; about a third of the inactives were read at about 46 µM | Potency, µM (titrated, usually from 37.8 µM), inactives show at the top dose activity change, negative = inhibition, most hits filed as inhibitors | actives 1.8% (n = 300,000) | AID 540276, 2011; active = well fitted inhibition curve with a large enough effect; inconclusive = small, poorly fitted or top-dose-only effect, or effect the other way; inactive = flat fitted curve, though single readings scatter; tested in HEK293 cells; about a fifth of its hits are not listed in these tables; also: % is scaled to controls: 0 for no effect and ±100 for the full control effect; luciferase read-out
# RE007 growth inh: qHTS Assay for Inhibitors of the HIV-1 protein Vpr; S. pombe RE007 Vpr strain, BacTiter-Glo ATP luminescence, 24 h; control for the full effect not named in the record; Potency, µM (top dose mostly 92.2 µM), without a hit: at the highest dose activity change, negative = less growth; actives 0.21% (n = 360,000); AID 651644, 2012; active = well fitted falling curve with a large enough effect; inconclusive = small, poorly fitted or top-dose-only effect; inactive = no such curve, though single readings can be large or run the other way;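 also: % is scaled to controls: 0 for no effect and ±100 for the full control effect; nearly all actives have a fitted effect of over 50% in size; the assay follows cell death caused by Vpr and the record does not say whether a fall means rescue or toxicity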
#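 Fission yeast strain RE007, carrying one chromosomally integrated HIV-1 vpr copy, was seeded at OD 0.01 in PMG+AL medium with 23 nL pinned compound. After 24 h at 30 °C and 99% humidity, viability was read by BacTiter-Glo luminescence.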
# NS1 function inh: qHTS Assay for Inhibitors of Influenza NS1 Protein Function; S. cerevisiae slowed by influenza A NS1, growth recovery by OD600; Potency, µM (top dose mostly 46.1 µM), without a hit: at the top dose activity, positive = more growth; actives 0.4% (n = 270,000); active means well fitted rising curve with a large enough effect; inconclusive means small, poorly fitted or top-dose-only effect; inactive means no such curve, though single readings can be large or run the other way; also: nearly all actives have a fitted effect of over 50% in size
#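 Recovery from NS1-induced slow growth read by OD600 in budding yeast switched to galactose assay medium (pH 6.0, -URA) at 1:100 dilution. Compound 23 nl per well; the matching strain lacking NS1 serves as control.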
# 2A StopGo: High Throughput Screening for Foot and Mouth Disease Virus Antivirals | AID 1159524, 2015 | Potency, µM (doses to about 57.9 µM), without a hit: at the top dose signal change, negative = less light | human cells with a luciferase reporter of 2A StopGo recoding; control for the full effect not named in the record | actives 1.2% (n = 410,000); active = well fitted falling curve with a large enough effect; inconclusive = small, poorly fitted or top-dose-only effect; inactive = no such curve, though single readings can be large or run the other way; tested in HEK293T cells; also: % is scaled to controls: 0 for no effect and ±100 for the full control effect; nearly all actives have a fitted effect of over 45% in size; luciferase light after 4 h
# Cruzain inh noDet: qHTS Assay for Promiscuous and Specific Inhibitors of Cruzain (without detergent); Potency, µM, without a hit: max response, negative = inhibition, usual class: inhibitors; actives 2.3% (n = 200,000); Cruzipain (Trypanosoma cruzi), P25779; purified cruzain, Z-FR-AMC fluorescence, no detergent;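 also: plate controls were enzyme without inhibitor for no effect and buffer without enzyme for full effect; nearly all actives have a fitted effect of over 40% in size; top concentration of the series not given in the record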
# Target sequence (P25779 123-467 limits assumed): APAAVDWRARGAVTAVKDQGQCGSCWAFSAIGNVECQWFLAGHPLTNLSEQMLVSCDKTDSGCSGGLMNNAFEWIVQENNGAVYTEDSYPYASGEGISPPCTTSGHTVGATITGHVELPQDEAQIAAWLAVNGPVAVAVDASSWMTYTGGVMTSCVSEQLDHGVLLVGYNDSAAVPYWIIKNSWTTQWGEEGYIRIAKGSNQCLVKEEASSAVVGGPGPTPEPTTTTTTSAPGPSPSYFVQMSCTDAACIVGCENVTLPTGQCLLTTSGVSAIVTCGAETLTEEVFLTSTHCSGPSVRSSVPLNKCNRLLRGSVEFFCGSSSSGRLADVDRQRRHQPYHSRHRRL
#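 Detergent-free condition (0.00005% Triton X-100) in acetate buffer pH 5.5 with DTT. 1.5 nM enzyme and compound were pre-mixed 15 min, then 2 uM Z-FR-AMC substrate added; reaction progress from fluorescence change between first and third reads (60 s).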
# Lassa entry inh: qHTS for Inhibitors of binding or entry into cells for Lassa Virus; Lassa virus pseudotype entry inhibition, cell reporter; control for the full effect not named in the record; Potency, µM (doses to about 37.9 µM), without a hit: at the top dose activity change, negative = inhibition, actives largely listed as inhibitors; actives 1.2% (n = 300,000); AID 540256, 2011; active means well fitted inhibition curve with a large enough effect; inconclusive means small, poorly fitted or top-dose-only effect, or effect the other way; inactive means flat fitted curve, though single readings scatter; tested in HEK293 cells; also: % is scaled to controls: 0 for no effect and ±100 for the full control effect; nearly all actives have a fitted effect of over 50% in size; luciferase read-out
# SARS PLpro yeast: qHTS of Yeast-based Assay for SARS-CoV PLP | Potency, µM (titrated, usually from 32.9 µM), for the others: at the highest dose activity, positive = growth rescue | AID 485353, 2010 | actives 0.19% (n = 330,000) | S. cerevisiae expressing SARS-CoV PLpro, growth rescue; control for the full effect not named in the record; active means well fitted rising curve with a large enough effect; inconclusive means small, poorly fitted or top-dose-only effect; inactive means no such curve, though single readings can be large or run the other way; also: 0% is about no effect; nearly all actives have a fitted effect of over 55% in size; growth read by luminescence after 48 h
# Cruzain inh Det: qHTS Assay for Promiscuous and Specific Inhibitors of Cruzain (with detergent); Cruzipain (Trypanosoma cruzi), P25779; purified cruzain, Z-FR-AMC fluorescence, 0.01% Triton; Potency, µM, for the others: max response, negative = inhibition, actives largely listed as inhibitors; actives 0.43% (n = 200,000);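 also: plate controls were neutral wells for no effect and buffer without enzyme for full effect; nearly all actives have a fitted effect of over 40% in size; top concentration of the series not given in the record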
#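 Compounds were screened in titration against cruzain (1.5 nM) with 0.01% Triton X-100 to counter colloidal aggregation. Activity was the AMC fluorescence increase over 60 s after adding 2 uM Z-FR-AMC at pH 5.5.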
# Numbers without * were called inactive; ? = inconclusive; / = not tested or not shown; & = joins results of further samples; [ ] = dose if it differs, or a comment. Unless noted, calls follow the shape of the dose curve; as a rule, active = well fitted curve in the direction sought with a large enough effect; inconclusive = small, poorly fitted or top-dose-only effect, or another doubt; inactive = no such curve, though single readings can be large; an effect the other way counts as inactive or inconclusive. Potency is read from the fitted curve at half-maximal effect.
molecule	Cruzain inh noDet	Cruzain inh Det	MARV entry inh	NS1 function inh	2A StopGo	SARS PLpro yeast	Lassa entry inh	RE007 growth inh
Cc1ccc(NC(=S)NC(NC(=O)Cc2cccc3ccccc23)C(Cl)(Cl)Cl)cc1 (stereo unspecified)	17%	1.5%	10%&0%	3%	-3%	1%	-10%	-15%
COc1ccc(OC)c(CNC(=O)C2CCN(C(=O)N(C)C)CC2)c1	-9%	3.6%	7%	-3%	/	12%	8%	-4%
Cc1ccc(OCC(=O)Nc2nnc(SCc3cc(=O)c4ccccc4[nH]3)s2)cc1	12%	1.7%	/	/	-22%	/	3%[46.1 µM]	/
COc1ccccc1/C=C1\SC(=S)N(CCC(=O)NCCCN2CCOCC2)C1=O	/	/	?	-1%	-10%	0%	?	-19%
S=c1nc[nH]c2nc[nH]c12	-3%	-7.0%	/	-6%	?	-3%&9%	/	8%[18.4 µM]
CCOc1ccc(CN(C(=O)c2cc3ccccc3oc2=O)C2CC2)cc1	-7%	-3.7%	10%[46.1 µM]	-25%	20%	-1%	0%	3%
CC(C)P(=O)(c1cccc(C(=O)O)c1)C(C)C	4%	1.0%	0%	10%	-16%	?	16%	-9%
CCc1cc[n+](-c2nc3ccccc3nc2C(=C=[N-])C#N)cc1	-21%	-5.5%	22%	1%	12%	1%	-21%	1%[3.69 µM]
Cc1cc(C)c(NC(=O)CS(=O)CC(=O)N2CCN(c3cccc(C)c3C)CC2)c(C)c1 (stereo unspecified)	/	/	-1%[46.1 µM]	-6%	-10%	2%	-21%[46.1 µM]	-27%
CCCCNC(=O)CSc1nc2ccc(N3CCOCC3)cc2c(=O)n1Cc1ccc(OC)cc1	/	/	-30%[46.1 µM]	/	29%	2%	-10%	12%
O=Nc1c(O)ccc2cc(S(=O)(=O)O)ccc12	/	/	-16%	/	0%	/	-11%	-13%
COC(=O)c1ccccc1NC(=O)c1cnc2c(-c3cccc(C)c3)c(C)nn2c1C	-2%	2.0%	/	/	-13%	/	-9%[46.1 µM]	/
Cc1cccc2cc(C(c3nnnn3Cc3ccccc3)N3CCN(C)CC3)c(=O)[nH]c12 (stereo unspecified)	-4%	3.7%	?	-2%	-1%	-1%	8%	12%
CCOC(=O)N1CCN(C(=O)Nc2ccc3oc(C)nc3c2)CC1	8%	3.7%	-9%	4%	/	2%	3%	-6%
CCOc1ccc(-n2c(SCC(=O)NCc3ccco3)nc3ccccc3c2=O)cc1	/	/	-20%[46.1 µM]	/	-5%	-5%	4%[46.1 µM]	4%
O=C(OCC(=O)N1CCC(Cc2ccccc2)CC1)c1ccccc1O	/	/	22%[46.1 µM]	/	22%	17%	0%[46.1 µM]	-10%
Cc1onc(-c2ccccc2Cl)c1C(=O)NCc1ccccc1	-6%	-3.1%	7%	-7%	/	-7%	18%	-1%
CCS(=O)(=O)N1CCC(C(=O)OCC(=O)c2ccc(Br)cc2)CC1	/	/	5%[46.1 µM]	0%	-15%	/	-16%	-5%
O=C(c1ccccc1)c1ccc(OCC(O)CN2CCN(Cc3ccccc3)CC2)cc1 (stereo unspecified)	7%	4.8%	15µM*	-4%	-26%	0%	?	-3%
CN(C)S(=O)(=O)c1ccc(C(=O)NNC(=O)C2COc3ccccc3O2)cc1 (stereo unspecified)	/	/	-6%	/	-14%	3%	10%	-2%
Cc1cc(C)cc(N(CC(=O)N2CCC(C)CC2)S(=O)(=O)c2ccccc2)c1	?	-4.9%	-27%	-1%	37%[activator]	/	-23%	5%
CCOC(=O)N1CCN(C(=O)CSc2ccc3nnc(-c4ccccn4)n3n2)CC1	/	/	?	/	-3%	6%	6%	-5%
Nc1ccccc1-c1nnc(SCC(=O)Nc2ccccc2OC(F)F)[nH]c1=O	/	/	23%	/	7%	13%	-10%	13%
CCOc1ccc(NC(=O)NNC(=O)c2ccc3ccccc3c2O)cc1	/	/	/	3%	-12%	0%	/	-2%
O=C(CCn1c(=O)oc2ccccc21)Nc1cccc([N+](=O)[O-])c1	/	/	-5%	-4%	-19%	2%	10%	-25%
O=C(CSCc1ccccc1)NNc1c(F)c(F)cc(F)c1F	/	/	3%	-1%	44%[activator]	1%	8%	-11%
COC(=O)/C(C#N)=C/c1c(N2CCCCCC2)nc2c(C)cccn2c1=O	/	/	/	-38%	-21%	-4%	/	-5%
O=C(O)c1ccc(-c2ccc(/C=c3/sc4nc5ccccc5n4c3=O)o2)cc1Cl	/	/	-1%[46.1 µM]	0%	18%	2%	17%[46.1 µM]	7%
Cc1cc(C)c(C(=O)N(C)CC2CCCN(CCc3ccccc3F)C2)o1 (stereo unspecified)	/	/	?	9%	-23%	-5%	1%	-14%
CCC(=O)Nc1ccc(OCc2nnc3c4ccccc4c(C)nn23)cc1	/	/	2%[46.1 µM]	5%	12%	0%	/	6%
CCCc1cc(C(=O)Nc2ccc(CC)cc2)no1	/	/	?	-23%	32%[activator]	-14%	?	-5%
O=S(=O)(Nc1cccc(-c2ccc(N3CCOCC3)nn2)c1)c1ccc(Cl)c(Cl)c1	/	/	3%	/	20%	3%	?	7%
CC1(C)Cc2ccccc2C(COc2ccccc2)=N1	/	/	-19%[46.1 µM]	1%	-3%	-2%	-4%[46.1 µM]	1%
Cc1ccc(C)c(-c2csc(N/N=C/c3ccco3)n2)c1	/	/	5µM*	/	-9%	-2%	2µM*	-8%
CC(NS(=O)(=O)c1ccc(Br)cc1)C(=O)NC1CCCCCC1 (stereo unspecified)	/	/	-7%	-5%	-7%	?	-9%	14%
COc1ccccc1NC(=O)c1ccc2c(c1)C(=O)N(c1ccccc1OC)C2=O	/	/	10%	5%	?	-4%	-5%	7%
CC(=O)Nc1c(NC(C)(C)C)c2ccccc2oc1=O	/	/	/	-1%	-5%	2%	/	22%
NNC(=O)c1sc2cc(C(F)(F)F)cnc2c1-c1ccccn1	/	/	2%[46.1 µM]	12%	9%	-2%	-7%	9%
C/C(CS(=O)(=O)c1ccc(Cl)c(Cl)c1)=N/NC(N)=S	/	/	7%[46.1 µM]	11%	7%	2%	-14%	22%
CC(=O)N(CCc1ccccc1)Cc1cc2ccc(C)c(C)c2[nH]c1=O	/	/	8%	9%	-14%	2%	-2%	2%
C[N+](C)(C)CCNC(=O)c1c(O)c2c([nH]c1=O)CCCC2	-3%	0.8%	5%	13%	8%	4%	-11%	7%
CCOC(=O)c1cn(CC(=O)Nc2cccc(F)c2)nn1	/	/	9%[46.1 µM]	/	-6%	-5%	-5%[46.1 µM]	-9%
CC1CN(C(=O)CCC(=O)NC2CCN(Cc3ccccc3)CC2)c2ccccc2O1 (stereo unspecified)	/	/	/	-5%	?	-4%	/	-2%
CC(Sc1nccn1C)C(=O)c1ccc(Br)cc1 (stereo unspecified)	/	/	3%[46.1 µM]	3%	31%[activator]	6%	27%[46.1 µM]	-23%
O=C(NCCc1ccccc1)c1ccc(CS(=O)(=O)Cc2ccc(F)cc2)o1	/	/	/	-7%	24%	?	/	-13%
O=c1[nH]c(=S)n(C2CC2)c(O)c1C=Nc1ccc2c(c1)OCO2	/	/	-3%[46.1 µM]	8%	-3%	0%	21%[46.1 µM]	41%
Cc1cc(N(CCO)CCO)nc(-n2nc(C)cc2C)n1	19%	12%	-2%[46.1 µM]	?	15%	2%	18%	16%
C=CCN1C(=O)C(O)(CC(=O)c2ccc(-n3cccc3)cc2)c2ccccc21 (stereo unspecified)	?	-8.4%	?	7%	23%	-10%	0%	-20%
Fc1ccccc1Nc1nc2ccccc2n2nnnc12	25µM*	-0.4%	/	-8%	20%	3%	/	-12%
CN(C)S(=O)(=O)c1ccc(C(=O)N2CC(=O)Nc3ccc(F)cc3C2c2ccc(F)cc2)cc1 (stereo unspecified)	/	/	/	0%	-9%	1%	/	-2%

# Further entries follow:
molecule	Cruzain inh noDet	Cruzain inh Det	MARV entry inh	NS1 function inh	2A StopGo	SARS PLpro yeast	Lassa entry inh	RE007 growth inh
COc1ccc(NC(=O)C(=O)NCCO)cc1Cl	6%	-2.3%	-9%	12%	6%	-1%	12%	24%
CCOc1cc(NC(=S)NCc2ccco2)c(OCC)cc1NC(C)=O	4%	-3.1%	7%	9%	/	1%	4%	4%
Cc1cc(OCC(=O)Nc2ccncc2)cc(C)c1Cl	/	/	/	-74%	8%	-10%	/	?
CCCOC(=O)CC1C(=O)NCCN1Cc1cc(OC)cc(OC)c1 (stereo unspecified)	/	/	2%	2%	-14%	0%	-28%	-3%
COc1ccc(CNC(=O)c2nccnc2CO)cc1	/	/	?	6%	12%	2%	6%[46.1 µM]	-11%

# Record cards, from the list above. Order of values: Cruzain inh noDet | Cruzain inh Det | MARV entry inh | NS1 function inh | 2A StopGo | SARS PLpro yeast | Lassa entry inh | RE007 growth inh
# Profile of CCCOC(=O)CC1C(=O)NCCN1Cc1cc(OC)cc(OC)c1 (stereo unspecified) : / | / | 2% | 2% | -14% | 0% | -28% | -3%
# Profile of Cc1cc(OCC(=O)Nc2ccncc2)cc(C)c1Cl : / | / | / | -74% | 8% | -10% | / | ?
# Profile of COc1ccc(NC(=O)C(=O)NCCO)cc1Cl : 6% | -2.3% | -9% | 12% | 6% | -1% | 12% | 24%
# Profile of COc1ccc(CNC(=O)c2nccnc2CO)cc1 : / | / | ? | 6% | 12% | 2% | 6%[46.1 µM] | -11%

# Screening data deposited in PubChem by National Center for Advancing Translational Sciences (NCATS).
